Compound activity: PubChem, Broad Institute
Ecoli rRNA inh: reduced GFP signal of wild-type E. coli, primary screen, bacterial rRNA inhibitor project, GFP/RFP fluorescence, OD600, single point. E. coli WT GFP vs humanized-ribosome RFP mutants, 24 h; hits give low values; DMSO median 0, no signal -100. GFP signal change (wild-type ribosome), % (concentration not given with the values). 1.6% of 350,000 active;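 active = significant combined selectivity score with lowered wild-type GFP, culture density cut under 30%, mutant RFP and density less affected; inactive = any of these conditions unmet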; note: one replicate is shown; some compounds called inactive have numbers as strong as hits
Ecoli rRNA inh OD600: second read-out of Ecoli rRNA inh, no call of its own (marks repeat the call); OD600 change, %; measured here: OD600 growth;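 optical density of the mix in the first replicate; 0 = DMSO median and -100 = no signal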
Ecoli rRNA inh RFP: second read-out of Ecoli rRNA inh, no call of its own (marks repeat the call); RFP signal change, %; measured here: RFP humanized mutant strains;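 first replicate; 0 = DMSO median and -100 = no signal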
Active calls of the source: *. The list is partial, so the mix of outcomes need not match the whole.

Start of the data: the first two compounds (preview)
molecule | Ecoli rRNA inh | Ecoli rRNA inh OD600 | Ecoli rRNA inh RFP
CCCN(C)C[C@H]1OCc2cnnn2CCCC(=O)N([C@@H](C)CO)C[C@H]1C | -1 | -9 | 1.5
O=C(C[C@@H]1C[C@H]2c3cc(NC(=O)C4CCC4)ccc3O[C@H]2[C@@H](CO)O1)NCCc1ccccc1 | -5 | 6 | -5.3

This part in full (from the top)
molecule | Ecoli rRNA inh | Ecoli rRNA inh OD600 | Ecoli rRNA inh RFP
CCCN(C)C[C@H]1OCc2cnnn2CCCC(=O)N([C@@H](C)CO)C[C@H]1C | -1 | -9 | 1.5
O=C(C[C@@H]1C[C@H]2c3cc(NC(=O)C4CCC4)ccc3O[C@H]2[C@@H](CO)O1)NCCc1ccccc1 | -5 | 6 | -5.3
COCCNC(=O)C[C@@H]1CC[C@@H]2[C@H](COC[C@@H](O)CN2C(=O)c2cc(Cl)cc(Cl)c2)O1 | 2 | 4 | -2.2
CCC(=O)Nc1ccc2c(c1)C(=O)N(C)[C@@H]1CC[C@@H](CC(=O)N[C@H](C)c3ccccc3)O[C@H]1CO2 | 1 | 3 | -0.9
CO[C@@H]1CN(C)C(=O)c2cc(NC(C)=O)ccc2OC[C@@H](C)N(C(=O)c2cccnc2)C[C@H]1C | 1 | 2 | -1.2
Nc1ncc(-c2ccc(-c3ccccc3)cc2F)cc1-c1ccccc1F | 6 | 13 | 1.3
OC(c1ccccc1)(c1nc(-c2ccc(Cl)cc2)cs1)C(F)(F)F (stereo unspecified) | -58 | -80 | -21
Cc1ccc(S(=O)(=O)NCC[C@H]2CC[C@H](NC(=O)CCN3CCCCC3)[C@@H](CO)O2)cc1 | 1 | 3 | -1.6
Cc1cc(-c2ccncc2)n2ncc(-c3ccccc3)c2n1 | -5 | 6 | 2.0
C[C@H](CO)N1C[C@H](C)[C@H](CN(C)C(=O)Nc2cccc3ccccc23)Oc2ccc(NS(=O)(=O)c3cn(C)cn3)cc2C1=O | 5 | 10 | -0.3
C[C@@H]1CN([C@H](C)CO)C(=O)c2cc(-c3cccc(F)c3)cnc2O[C@@H]1CN(C)Cc1ccccc1 | 2 | 9 | 2.2
CN(C)CC(=O)N[C@@H]1CC[C@H](CCNC(=O)C2CCCCC2)O[C@H]1CO | 2 | 5 | -2.6
CNC[C@H]1OCCCC[C@H](C)Oc2ccc(NC(=O)NC(C)C)cc2C(=O)N([C@H](C)CO)C[C@@H]1C | 4 | -1 | -0.5
CCC(=O)Nc1ccc2c(c1)C(=O)N(C)[C@H]1CC[C@@H](CC(=O)NCc3ccccc3Cl)O[C@H]1CO2 | -4 | -5 | -1.0
C[C@@H]1CN([C@@H](C)CO)C(=O)c2cc(NS(=O)(=O)c3ccc(F)cc3)ccc2O[C@@H](C)CCCCO[C@H]1CN(C)Cc1ccc(C(F)(F)F)cc1 | -2 | -8 | -0.1
C[C@H]1CN([C@@H](C)CO)C(=O)c2ccccc2-c2ccccc2CO[C@H]1CN(C)S(=O)(=O)c1ccc(C(F)(F)F)cc1 | -1 | -3 | 2.1
O=C(CN1CCOCC1)N1CC2(C1)[C@H](c1ccccc1)[C@@H](CO)N2Cc1cccc(F)c1 | -2 | 2 | 0.3
CCc1nc2ccc(C(=O)NCCOc3ccc(OC)cc3)cn2c1N(C)C(=O)COc1ccccc1 | -4 | -5 | 3.1
C[C@@H]1CN([C@H](C)CO)C(=O)CCCn2cc(nn2)CO[C@@H]1CN(C)S(=O)(=O)c1ccc(-n2cccn2)cc1 | 1 | -1 | 0.4
C[C@H](CO)N1C[C@H](C)[C@H](CN(C)S(C)(=O)=O)Oc2cc(C3=CCCC3)ccc2S1(=O)=O | -7 | -13 | 5.6
CC(C)NC(=O)N(C)C[C@@H]1Oc2cc(-c3ccncc3)ccc2S(=O)(=O)N([C@@H](C)CO)C[C@H]1C | 4 | 2 | -0.9
CCCNC(=O)N[C@H]1CC[C@H](CC(=O)NC2CCC2)O[C@@H]1CO | 3 | 4 | -1.0
CC(C)NC(=O)Nc1cccc2c1O[C@@H](CN(C)CC1CC1)[C@H](C)CN([C@@H](C)CO)C2=O | 4 | 4 | -2.3
CC1C(c2ccccc2)=Nn2c(=O)n(-c3ccccc3)c(=O)n21 (stereo unspecified) | -14 | -12 | 2.4
C[C@H]1CN([C@@H](C)CO)C(=O)c2cc(NC(=O)NC3CCCCC3)ccc2O[C@@H]1CN(C)CC1CCCCC1 | 7 | -9 | -0.8
COc1ccc(NC(=O)C2(C)CCN2Cc2ccc(SC)cc2)cc1OC (stereo unspecified) | -19 | -21 | -4.9
CN1CCN(C(=O)C2Cc3c(-c4cccc(F)c4)ccnc3O2)CC1 (stereo unspecified) | 1 | 8 | -1.3
C[C@H](CO)N1C[C@H](C)[C@H](CN(C)Cc2ccncc2)OCCCC[C@H](C)Oc2ccc(NC(=O)Nc3ccc4c(c3)OCO4)cc2C1=O | -8 | -5 | 7.5
COCC#Cc1ccc([C@@H]2[C@@H](CO)N3C(=O)CN(C(=O)C4CC4)C[C@@H]23)cc1 | -1 | -5 | -2.1
CCOc1c(Br)cc(C(=O)Nc2cccc(S(=O)(=O)N3CCOCC3)c2)cc1OC | -8 | -13 | 0.8
O=C(C[C@@H]1CC[C@H]2[C@@H](COC[C@H](O)CN2Cc2ccc3c(c2)OCO3)O1)N1CCCCC1 | -2 | 2 | -0.1
O=C(C[C@@H]1CC[C@H](NS(=O)(=O)c2ccccc2)[C@@H](CO)O1)NCc1ccncn1 | -2 | 6 | 1.0
COc1ccc(CN2CCCC(C(=O)N3CCCC3)C2)c(OC)c1OC (stereo unspecified) | 9 | 17 | 4.7
CS(=O)(=O)N1[C@H](C#N)[C@H](c2ccc(C#CC3CCCCC3)cc2)[C@H]1CO | 0 | 0 | -0.6
C[C@H]1CN([C@@H](C)CO)C(=O)c2cc(NC(=O)CCC(F)(F)F)ccc2O[C@H]1CN(C)Cc1ccncc1 | 2 | 8 | -1.6
CC(C)(C)C(=O)c1c(N)[nH]c(C(=O)c2ccccc2)c1-c1ccc(C(F)(F)F)cc1 | -28 | -23 | 6.3
C[C@@H]1CN([C@H](C)CO)C(=O)c2ccccc2-c2ccccc2CO[C@@H]1CN(C)S(=O)(=O)c1cccs1 | 0 | 2 | -2.0
COc1ccc2c3c([nH]c2c1)[C@@H](CO)N(C(=O)NC(C)C)CC31CCN(C(=O)c2cccnc2)CC1 | 1 | 8 | -2.5
CC(=O)NC[C@@H]1[C@H](c2ccc(-c3ccccc3F)cc2)[C@H](CO)N1C(C)=O | 0 | 8 | -2.7
O=C(C[C@H]1CC[C@H]2[C@@H](COC[C@@H](O)CN2Cc2ccc(Oc3ccccc3)cc2)O1)Nc1nccs1 | -2 | -51 | 20
C[C@@H]1CCCCO[C@H](CN(C)Cc2ccc(C(=O)O)cc2)[C@@H](C)CN([C@@H](C)CO)C(=O)c2cc(NC(=O)Nc3ccc4c(c3)OCO4)ccc2O1 | 1 | 4 | -2.4
CCOC(=O)C1(C)CCCN(C(=O)c2ccc(F)c(Cl)c2)C1 (stereo unspecified) | -2 | -2 | 1.9
C[C@@H]1CN([C@H](C)CO)C(=O)c2cc(NS(=O)(=O)c3cccs3)ccc2O[C@H]1CN(C)Cc1ccc2c(c1)OCO2 | -3 | 1 | 0.3
CN(c1cccnc1)c1ccc(NC(=O)CCc2c[nH]c3ccccc23)cc1Br | 3 | 1 | 3.4
C[C@H]1CN([C@@H](C)CO)C(=O)c2cc(NS(=O)(=O)c3cn(C)cn3)ccc2O[C@@H]1CN(C)CC1CC1 | 8 | 9 | 0.6
O=C(C[C@H]1C[C@H]2c3cc(NC(=O)NC4CCCC4)ccc3O[C@H]2[C@@H](CO)O1)NCc1cccnc1 | 1 | 10 | 0.6
C[C@H]1CN([C@@H](C)CO)C(=O)c2cccc(NS(=O)(=O)c3ccc(F)cc3)c2O[C@@H]1CN(C)CC1CCCCC1 | 0 | 8 | -0.2
COc1ccc(-c2ccc3c(c2)[C@H]2[C@H](CCN2S(=O)(=O)c2ccccc2C)[C@H](CO)N3)cc1 | -7 | -4 | 2.4
COc1ccccc1C#Cc1ccc2c(c1)O[C@H](CN(C)Cc1ccccc1)[C@@H](C)CN([C@@H](C)CO)S2(=O)=O | 3 | 15 | -1.2
CC(=O)N1[C@@H](CO)[C@@H](c2ccc(-c3ccc(F)cc3)cc2)[C@@H]1CNC(=O)C1CC1 | -2 | -14 | -2.8
Cc1noc(C)c1NC(=O)Nc1ccc2c(c1)CC(=O)N([C@H](C)CO)C[C@@H](C)[C@@H](CN(C)Cc1ccc(C(=O)Nc3ccccc3N)cc1)O2 | -4 | -7 | -1.3
C[C@@H]1CN([C@@H](C)CO)C(=O)c2cc(-c3ccncc3)cnc2O[C@@H]1CN(C)S(=O)(=O)c1ccc(F)cc1 | 4 | -3 | 1.2
COc1ccc(OC)c(C(O)c2ncc(-c3cccc(C(F)(F)F)c3)[nH]2)c1 (stereo unspecified) | 2 | -11 | 4.5
COc1cccc(C#Cc2ccc3c(c2)[C@H]2[C@H](CCN2S(=O)(=O)c2ccccc2)[C@H](CO)N3)c1 | -3 | 9 | -3.5
C[C@H]1CN([C@@H](C)CO)S(=O)(=O)c2ccc(C#Cc3ccccc3)cc2O[C@@H]1CN(C)S(=O)(=O)c1ccccc1F | 2 | 15 | -2.4
C[C@H](CO)N1C[C@H](C)[C@H](CN(C)S(C)(=O)=O)OCCCC[C@H](C)Oc2ccc(NS(C)(=O)=O)cc2C1=O | -2 | 9 | 0.2
Cc1noc(C)c1S(=O)(=O)Nc1ccc2c(c1)C(=O)N([C@@H](C)CO)C[C@@H](C)[C@H](CN(C)Cc1ccccc1)OCCCC[C@@H](C)O2 | 2 | -3 | 0.2
CO[C@@H]1CN(C)C(=O)c2ccc(NC(=O)C3CCOCC3)cc2OC[C@@H](C)N(C(=O)c2ccccc2)C[C@@H]1C | 0 | -1 | 2.6
C[C@@H]1CN([C@@H](C)CO)C(=O)c2cc(NC(=O)CCCN(C)C)ccc2O[C@H]1CN(C)C | 4 | 5 | -0.3
COc1ccc(CN(C)C[C@H]2OCCCC[C@@H](C)Oc3ccc(NS(C)(=O)=O)cc3C(=O)N([C@@H](C)CO)C[C@@H]2C)cc1 | -2 | 7 | -0.1

Given with each value named: part of the list above.
CCC(=O)Nc1ccc2c(c1)C(=O)N(C)[C@H]1CC[C@@H](CC(=O)NCc3ccccc3Cl)O[C@H]1CO2
  Ecoli rRNA inh: -4; Ecoli rRNA inh OD600: -5; Ecoli rRNA inh RFP: -1.0
C[C@@H]1CN([C@@H](C)CO)C(=O)c2cc(NS(=O)(=O)c3ccc(F)cc3)ccc2O[C@@H](C)CCCCO[C@H]1CN(C)Cc1ccc(C(F)(F)F)cc1
  Ecoli rRNA inh: -2; Ecoli rRNA inh OD600: -8; Ecoli rRNA inh RFP: -0.1
C[C@H]1CN([C@@H](C)CO)C(=O)c2ccccc2-c2ccccc2CO[C@H]1CN(C)S(=O)(=O)c1ccc(C(F)(F)F)cc1
  Ecoli rRNA inh: -1; Ecoli rRNA inh OD600: -3; Ecoli rRNA inh RFP: 2.1

Next part.
molecule | Ecoli rRNA inh | Ecoli rRNA inh OD600 | Ecoli rRNA inh RFP
CO[C@@H](CN(C)C(=O)c1ccc2c(c1)OCO2)[C@@H](C)CN([C@@H](C)CO)S(=O)(=O)c1ccccc1 | 0 | 10 | 0.0
O=C(c1ccccc1)N1CC[C@@H]2[C@@H](CO)Nc3ccc(C#Cc4cccnc4)cc3[C@@H]21 | -5 | -10 | -1.4
CNC[C@H]1Oc2ccc(NS(=O)(=O)c3ccc(F)cc3)cc2CC(=O)N([C@@H](C)CO)C[C@@H]1C | -3 | 1 | -2.6
C[C@H]1CN([C@@H](C)CO)C(=O)Cc2cc(NC(=O)c3ccncc3)ccc2O[C@@H]1CN(C)Cc1ccccc1 | -3 | 12 | 4.1
C[C@@H]1CN([C@@H](C)CO)C(=O)c2cccc(NC(=O)Nc3ccc(C(F)(F)F)cc3)c2O[C@H]1CN(C)C(=O)Nc1cccc2ccccc12 | 0 | 11 | 6.2
CO[C@@H]1CN(C)C(=O)c2ccc(NC(=O)NC(C)C)cc2OC[C@H](C)N(Cc2ccc(-c3ccccn3)cc2)C[C@H]1C | -9 | -12 | 3.2
O=C(Nc1ccccc1)N1CC(=O)N2[C@H](C1)[C@@H](c1ccc(-c3ccc(F)cc3)cc1)[C@@H]2CO | -48 | -72 | -2.6
Cc1ccccc1C(=O)N1CCN(C(=O)C(=O)c2cccc(C(F)(F)F)c2)CC1 | 10 | 12 | 0.5
C[C@H](CO)N1C[C@H](C)[C@@H](CN(C)C(=O)Cc2ccccn2)Oc2ncc(C#CC3CCCCC3)cc2C1=O | -1 | -5 | 5.0
COC(=O)C[C@H]1C[C@@H]2c3cc(NC(=O)Nc4ccc(OC)cc4)ccc3O[C@@H]2[C@@H](CO)O1 | -6 | -3 | 1.0
CCCC[C@@H]1CC2=C(C(=O)OC(C)(C)O2)[C@@H](c2ccc(Cl)cc2)O1 | 13 | 3 | -0.2
COc1ccc2c3c(n(C)c2c1)[C@H](CO)N(C(C)=O)CC31CN(C(=O)C2CCOCC2)C1 | 2 | 17 | -2.9
CN1c2ccc(C3=CCCCC3)cc2[C@H]2[C@H](CCN2S(=O)(=O)c2ccccc2F)[C@@H]1CO | -1 | -4 | 1.9
COc1ccc(S(=O)(=O)Nc2ccc3c(c2)C(=O)N([C@@H](C)CO)C[C@H](C)[C@H](CN(C)Cc2ccc(C(=O)Nc4ccccc4N)cc2)O3)cc1 | 1 | -2 | 0.2
C[C@H](CO)N1C[C@H](C)[C@H](CN(C)Cc2ccncc2)Oc2ncccc2C1=O | 2 | 12 | 1.2
CCCCCCCCN1C(=O)[C@H](CC(=O)NCc2cccs2)C[C@@]2(C(=O)OC)CC(C)(C)CC=C12 | 8 | 19 | 0.5
O=C(N[C@@H]1CC[C@H](CCNS(=O)(=O)c2ccccc2)O[C@H]1CO)c1cccnc1 | 3 | 11 | -1.9
COCC#Cc1ccc2c(c1)O[C@@H](CN(C)C(=O)C1CCCCC1)[C@@H](C)CN([C@H](C)CO)S2(=O)=O | -2 | -6 | -0.6
